Ecoli rRNA inh: inhibits bacterial ribosomal RNA function over humanized ribosomes; E. coli WT GFP vs humanized-ribosome RFP mutants, fluorescence, 24 h; active compounds read low; DMSO median 0, no signal -100; GFP signal change (wild-type ribosome), % (concentration not given with the values); 1.6% of 350,000 active;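 active = significant combined selectivity score with lowered wild-type GFP, culture density cut under 30%, mutant RFP and density less affected; inactive = any of these conditions unmet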; note: one replicate is shown; some compounds called inactive have numbers as strong as hits
Ecoli rRNA inh OD600: second read-out of Ecoli rRNA inh, no call of its own (marks repeat the call); OD600 change, %; measured here: OD600 growth;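 optical density of the mix in the first replicate; 0 = DMSO median and -100 = no signal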
Ecoli rRNA inh RFP: recorded beside Ecoli rRNA inh, whose call it bears; RFP signal change, %; measured here: RFP humanized mutant strains;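 first replicate; 0 = DMSO median and -100 = no signal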
An asterisk follows results filed as active; & = joins results of further samples. The list is partial, so the mix of outcomes need not match the whole.

A first look, 4 compounds:
Ecoli rRNA inh,Ecoli rRNA inh OD600,Ecoli rRNA inh RFP,smiles
4,-16,10,Cc1ccc(S(=O)(=O)Nc2ccc3c(c2)C(=O)N([C@H](C)CO)C[C@H](C)[C@H](CN(C)CC2CCCCC2)OCCCC[C@@H](C)O3)cc1
-2,-8,0.0,O=C(C[C@@H]1CC[C@H]2[C@@H](COC[C@H](O)CN2Cc2nccs2)O1)NCc1ccc(Oc2ccccc2)cc1
-1,-5,-0.3,COc1ccc(NC(=O)N(C)C[C@@H]2OCCCC[C@H](C)Oc3ccc(NS(=O)(=O)c4c(C)noc4C)cc3C(=O)N([C@H](C)CO)C[C@@H]2C)cc1
2,-53,28,Cc1cccc(CN2CCC(n3nccc3NC(=O)CCCc3ccccc3)CC2)c1

The whole of this part, from the first entry:
Ecoli rRNA inh,Ecoli rRNA inh OD600,Ecoli rRNA inh RFP,smiles
4,-16,10,Cc1ccc(S(=O)(=O)Nc2ccc3c(c2)C(=O)N([C@H](C)CO)C[C@H](C)[C@H](CN(C)CC2CCCCC2)OCCCC[C@@H](C)O3)cc1
-2,-8,0.0,O=C(C[C@@H]1CC[C@H]2[C@@H](COC[C@H](O)CN2Cc2nccs2)O1)NCc1ccc(Oc2ccccc2)cc1
-1,-5,-0.3,COc1ccc(NC(=O)N(C)C[C@@H]2OCCCC[C@H](C)Oc3ccc(NS(=O)(=O)c4c(C)noc4C)cc3C(=O)N([C@H](C)CO)C[C@@H]2C)cc1
2,-53,28,Cc1cccc(CN2CCC(n3nccc3NC(=O)CCCc3ccccc3)CC2)c1
3,8,0.1,COc1ccccc1CNC(=O)C[C@H]1CC[C@@H]2[C@@H](COc3ccc(NC(C)=O)cc3C(=O)N2C)O1
-5,-7,-3.4,C[C@H](O)C#Cc1ccc2c(c1)O[C@@H](CN(C)C(=O)C1CCCCC1)[C@H](C)CN([C@H](C)CO)S2(=O)=O
13,-1,2.0,COc1cc(NC(=O)[C@@H](Cc2ccccc2)NC(=O)[C@H]2O[C@@H](n3ccc(=O)[nH]c3=O)[C@H](O)[C@@H]2O)cc(OC)c1OC
1,4,-5.3,Cc1noc(C)c1NC(=O)Nc1ccc2c(c1)C(=O)N([C@@H](C)CO)C[C@H](C)[C@H](CN(C)Cc1ccncc1)OCCCC[C@H](C)O2
17,-3,7.0,CC(=O)O[C@@H]1C=C[C@@H](C#Cc2ccc(C(C)(C)C)cc2)O[C@@H]1COC(=O)NC(C)C
-27,-34,4.0,CCCCOCCCNC(=O)C[C@@H]1C[C@@]2(C(=O)OCC)CCCC=C2N(Cc2ccc3c(c2)OCO3)C1=O
-4,9,2.6,Cn1cnc(S(=O)(=O)N2CCCCN3[C@H](CO)[C@H](c4ccc(-c5ccccc5F)cc4)[C@H]3C2)c1
1,0,1.0,COCC(=O)Nc1ccc2c(c1)[C@@H]1C[C@@H](CC(=O)N3CCOCC3)O[C@H](CO)[C@@H]1O2
10&1,6&1,-1.4&-4.0,COc1ccccc1S(=O)(=O)N(C)C[C@H]1OCc2cn(nn2)CCCC(=O)N([C@H](C)CO)C[C@@H]1C
8,11,-2.8,CN(C)C(=O)c1cccc(-c2ccc([C@H]3[C@@H](CO)N4CCCCN(CC5CCOCC5)C[C@H]34)cc2)c1
1,4,0.0,CN1C(=O)c2cc(NC(=O)C3CC3)ccc2OC[C@@H]2O[C@H](CC(=O)NC3CCC3)CC[C@H]21
-8,-6,3.7,C[C@@H]1CN([C@H](C)CO)C(=O)c2cc(-c3ccccc3F)cnc2O[C@H]1CN(C)C(=O)C1CCCCC1
-2,-9,4.2,C[C@@H]1CN([C@@H](C)CO)C(=O)c2cc(NC(=O)Cn3cnnn3)ccc2O[C@@H]1CN(C)Cc1ccc(Oc2ccccc2)cc1
-2,-11,16,O=C(Nc1cc(F)ccc1F)N1CC(=O)N2[C@H](C1)[C@H](c1ccc(-c3ccccc3)cc1)[C@@H]2CO
6,-4,-0.1,O=C(Nc1ccccc1F)N1CCCCN2[C@H](CO)[C@H](c3ccc(C#Cc4ccccc4)cc3)[C@@H]2C1
-4,-4,1.9,O=C(N[C@@H]1CC[C@@H](CCNS(=O)(=O)c2cccc(Cl)c2)O[C@H]1CO)c1ccc(F)cc1

No new results follow: entries from further up.
Ecoli rRNA inh,Ecoli rRNA inh OD600,Ecoli rRNA inh RFP,smiles
-2,-11,16,O=C(Nc1cc(F)ccc1F)N1CC(=O)N2[C@H](C1)[C@H](c1ccc(-c3ccccc3)cc1)[C@@H]2CO
6,-4,-0.1,O=C(Nc1ccccc1F)N1CCCCN2[C@H](CO)[C@H](c3ccc(C#Cc4ccccc4)cc3)[C@@H]2C1
-4,-4,1.9,O=C(N[C@@H]1CC[C@@H](CCNS(=O)(=O)c2cccc(Cl)c2)O[C@H]1CO)c1ccc(F)cc1

Further compounds follow.
Ecoli rRNA inh,Ecoli rRNA inh OD600,Ecoli rRNA inh RFP,smiles
-1,-1,-2.2,COc1cccc(C(=O)Nc2ccc3c(c2)C(=O)N(C)C[C@@H](OC)[C@@H](C)CN(CC2CC2)[C@@H](C)CO3)c1
-2,11,-3.7,Cc1ccc(S(=O)(=O)Nc2ccc3c(c2)CC(=O)N([C@H](C)CO)C[C@@H](C)[C@H](CN(C)S(=O)(=O)c2cccs2)O3)cc1
0,4,-0.2,O=C(Nc1ccccc1F)N[C@H]1CC[C@@H](CCNC(=O)C2CC2)O[C@H]1CO
-4,-19,-8.0,O=C(c1ccco1)N1CCN(C2CN(Cc3cn(Cc4ccccc4C(F)(F)F)nn3)S(=O)(=O)C2)CC1 (stereo unspecified)
0,0,2.8,N#Cc1ccc(Nc2nc(-c3ccccc3)c(C(=O)c3ccccc3)s2)cc1
3,21,0.2,COCC(=O)N1[C@H](CO)[C@H](c2ccccc2)C12CN(C(=O)Nc1ccccc1F)C2
-1,-7,-0.5,C[C@@H](c1ccccc1)N1C[C@@H](COCc2ccccc2)Oc2cc(N3CC[C@H](O)C3)ccc2S1(=O)=O
-40,-46,-2.9,COc1ccccc1NC(=O)N1CCCCN2[C@@H](CO)[C@H](c3ccc(C#CC4CCCC4)cc3)[C@@H]2C1
-1,6,-2.6,C[C@H]1CN([C@@H](C)CO)C(=O)c2cccc(NS(=O)(=O)c3cccs3)c2O[C@@H]1CN(C)Cc1ccncc1
0,7,-1.1,O=C(Cc1ccccn1)NCC[C@@H]1CC[C@@H](NS(=O)(=O)c2ccccc2)[C@@H](CO)O1
4,-1,-0.9,Cc1noc(C)c1S(=O)(=O)N(C)C[C@@H]1Oc2ccc(NS(=O)(=O)c3cn(C)cn3)cc2CC(=O)N([C@@H](C)CO)C[C@H]1C
6,8,-1.7,N#C[C@@H]1[C@H](c2ccccc2)[C@@H](CO)N1C(=O)CN1CCOCC1
-1,5,-3.6,CCCNC(=O)N(C)C[C@@H]1Oc2ncc(C#CC(C)C)cc2C(=O)N([C@H](C)CO)C[C@H]1C
1,1,-1.4,CN(C)CC(=O)Nc1ccc2c(c1)[C@H]1C[C@@H](CC(=O)NCCN3CCCCC3)O[C@@H](CO)[C@H]1O2
-1,5,-0.3,O=C(Nc1ccccc1)N[C@H]1CC[C@@H](CCn2cc(C3(O)CCCC3)nn2)O[C@@H]1CO
1,4,1.6,C[C@@H]1CCCCO[C@@H](CN(C)Cc2ccc(Cl)c(Cl)c2)[C@H](C)CN([C@H](C)CO)C(=O)c2cc(NC(=O)C3CCCCC3)ccc2O1
-4,1,6.6,CC(C)CC#Cc1ccc2c(c1)O[C@@H](CN(C)C(=O)c1ccccc1F)[C@H](C)CN([C@@H](C)CO)S2(=O)=O
-53,-78,-15,OC(c1ccccc1)(c1nc(-c2ccc(F)c(Cl)c2)cs1)C(F)(F)F (stereo unspecified)
2,8,4.1,Cc1ccccc1CN1[C@@H](C)[C@H](c2ccccc2)Oc2cccc(N3CCCC(C)C3)c2S1(=O)=O (stereo partly specified)
1,2,-0.1,CO[C@H]1CN(C)C(=O)c2cc(NC(=O)c3cccc(F)c3)ccc2OC[C@@H](C)N(C(C)=O)C[C@H]1C

Continued; the last two above are carried over.
Ecoli rRNA inh,Ecoli rRNA inh OD600,Ecoli rRNA inh RFP,smiles
2,8,4.1,Cc1ccccc1CN1[C@@H](C)[C@H](c2ccccc2)Oc2cccc(N3CCCC(C)C3)c2S1(=O)=O (stereo partly specified)
1,2,-0.1,CO[C@H]1CN(C)C(=O)c2cc(NC(=O)c3cccc(F)c3)ccc2OC[C@@H](C)N(C(C)=O)C[C@H]1C
-6,-18,1.3,COCC#Cc1ccc2c(c1)O[C@H](CN(C)S(=O)(=O)c1cccc(OC)c1)[C@@H](C)CN([C@H](C)CO)S2(=O)=O
-13,-24,0.5,COC(=O)[C@]12C[C@H](CC(=O)N3CCCC3)C(=O)N(CCC3=CCCCC3)C1=C[C@H](COCc1ccccc1)O[C@@H]2C
4,6,-6.0,N#Cc1cccc(-c2ccc3c(c2)[C@@H]2[C@@H](CCN2C(=O)CN2CCOCC2)[C@H](CO)N3)c1
3,-2,1.8,O=C(C1CCCC1)N1[C@H](CO)[C@H](c2ccccc2)C12CN(CCC(F)(F)F)C2
-3,-2,4.1,C[C@H]1CCCCO[C@H](CN(C)Cc2ccncc2)[C@@H](C)CN([C@@H](C)CO)C(=O)c2cc(NC(=O)Nc3ccc(F)cc3)ccc2O1
1,-5,-1.3,C[C@H](CO)N1C[C@H](C)[C@H](CN(C)S(=O)(=O)c2cccs2)Oc2ccc(NC(=O)CCCN(C)C)cc2C1=O
0,-8,-2.4,CCCC#Cc1ccc([C@H]2[C@@H](CO)N3C(=O)CN(C(=O)NC4CCCC4)C[C@H]23)cc1
-4,5,0.3,O=C(Nc1ccc(F)cc1)N1CC(=O)N2[C@@H](CO)[C@@H](c3ccc(C#Cc4cccnc4)cc3)[C@@H]2C1
2,2,-3.2,C[C@@H]1CCCCO[C@@H](CN(C)Cc2ccc(C(F)(F)F)cc2)[C@@H](C)CN([C@@H](C)CO)C(=O)c2cc(NS(C)(=O)=O)ccc2O1
2,11,-2.2,COCC(=O)N1CCCCN2[C@H](CO)[C@H](c3ccc(C#Cc4cccnc4)cc3)[C@H]2C1
2,15,0.2,C[C@H](CO)N1C[C@H](C)[C@H](CN(C)S(=O)(=O)c2ccccc2F)Oc2cc(-c3ccccc3)ccc2S1(=O)=O
11,13,5.1,CCCCC1(CC(=O)OCC)SCCN1C(N)=O (stereo unspecified)
8&-1,9&-10,0.5&-2.1,Cc1noc(C)c1NC(=O)N(C)C[C@@H]1Oc2cc(Br)ccc2S(=O)(=O)N([C@H](C)CO)C[C@@H]1C
0,-2,2.5,CN(C)C(=O)c1cccc(-c2ccc([C@@H]3[C@@H](CO)N4C(=O)CN(C(=O)Cc5ccccc5)C[C@@H]34)cc2)c1
1,9,1.5,COc1ccc(NC(=O)Nc2ccc3c(c2)[C@H]2C[C@H](CC(=O)NCC(F)(F)F)O[C@@H](CO)[C@H]2O3)cc1
2,2,-1.0,CCCN1C[C@@H](C)[C@@H](OC)CN(C)C(=O)c2ccc(NC(=O)CC)cc2OC[C@@H]1C
6,6,3.6,O=S1(=O)C[C@H](N2CCC[C@@H]2CO)[C@@H](COCc2ccccc2)N1
1,-8,5.4,O=C(C[C@@H]1CC[C@H]2[C@@H](COC[C@H](O)CN2C(=O)c2ccccc2F)O1)N1CCCCC1
-2,3,0.4,CCC(=O)Nc1ccc2c(c1)C(=O)N(C)C[C@@H](OC)[C@@H](C)CN(C(=O)c1ccccc1F)[C@H](C)CO2
2,8,-0.4,CNC[C@@H]1OCCCC[C@H](C)Oc2ccc(NS(=O)(=O)c3cccs3)cc2C(=O)N([C@@H](C)CO)C[C@@H]1C

Later entries
Ecoli rRNA inh,Ecoli rRNA inh OD600,Ecoli rRNA inh RFP,smiles
0,3,-0.1,CO[C@@H]1CN(C)C(=O)c2ccc(NC(C)=O)cc2OC[C@@H](C)N(Cc2ccccc2C(=O)O)C[C@H]1C
1,2,5.1,COCC(=O)Nc1ccc2c(c1)OC[C@H](C)N(C(=O)c1ccncc1)C[C@H](C)[C@H](OC)CN(C)C2=O
-2,-2,-3.5,C[C@H]1CN([C@@H](C)CO)C(=O)c2cc(C#CC3CC3)cnc2O[C@H]1CN(C)Cc1ccncc1
-4,4,0.4,COc1cccc(-c2cnc3c(c2)C(=O)N([C@H](C)CO)C[C@@H](C)[C@H](CN(C)C(C)=O)O3)c1
-7,-11,3.8,C[C@@H]1CN([C@H](C)CO)C(=O)c2cc(NC(=O)Nc3ccc4c(c3)OCO4)ccc2O[C@H]1CN(C)S(=O)(=O)c1ccccc1
-1,-4,-3.2,O=C(C[C@H]1CC[C@@H](NS(=O)(=O)c2ccc(F)cc2)[C@H](CO)O1)NC1CCC1
2,11,5.1,CCC(=O)N1CC(=O)N2[C@H](CO)[C@H](c3ccc(C#Cc4cccc(F)c4)cc3)[C@H]2C1
4,-37,8.6,COc1ccccc1CNc1nc(NCc2ccc(C(C)C)cc2)c2sccc2n1
0,1,-1.7,CN(C)CC(=O)N[C@H]1CC[C@@H](CCNC(=O)C2CCCCC2)O[C@H]1CO
